# Source: PubChem BioAssay (National Center for Advancing Translational Sciences (NCATS))
# nsP2pro primary: Primary qHTS for inhibitors of NSP2Pro chikungunya virus (CHIKV); Potency, µM (top dose mostly 24.9 µM), for inactives: at the top dose activity change, negative = inhibition, most hits filed as inhibitors; AID 1964107, 2024; FRET peptide cleavage, nsP2pro, fluorescence 1 h; Polyprotein P1234 (Chikungunya virus (strain S27-African prototype)), Q8JUX6; 31,000 compounds, 1.1% hits; active means well fitted inhibition curve with a large enough effect; inconclusive means small, poorly fitted or top-dose-only effect; inactive means no such curve, though single readings can be large or run the other way; note: nearly all actives have a fitted effect of over 60% in size; a reference inhibitor and vehicle were the controls
# Starred values were filed as active, the others as inactive; i = inactive; ? = inconclusive; & = joins results of further samples; [ ] = another dose, or the depositor's remark. % is set by controls: 0 for no effect and ±100 for the full control effect; potency is the fitted concentration of half-maximal effect. Some of the compounds tested, so the mix of outcomes need not match the whole.
SMILES,nsP2pro primary
CN(C)c1ccc2c(=O)n3nc(Nc4ccc5c(c4)CCC5)sc3nc2c1,-2%
COc1ccccc1NC(=O)CSc1nc2nccnc2c(=O)n1CCc1c[nH]c2ccccc12,-6%
CC(C)(C)c1ccccc1NC(=O)CSc1nc(-c2cccs2)cc(C(F)(F)F)n1,-21%
c1ccc(-c2ccnc3nc(CCC4CCCC4)nn23)nc1,i
O=C1NC2(CCN(CC3CCCCC3)CC2)COc2ccccc21,?
COc1ccc(-c2cc([C@H]3CN4CC[C@H]3C[C@@H]4CN)nc(C)n2)cc1OC,i
O=C1NC(=Nc2ccccc2F)S/C1=C\c1ccc(C(=O)O)cc1,-3%
C=CC[C@]12C[C@@H](OC)C(=O)C(OC)=C1O[C@@H](c1cc(OC)c3c(c1)OCO3)[C@@H]2C,-3%[10 µM]
O=C(c1ccco1)N1Cc2[nH]cnc2C[C@H]1c1nc(-c2ccncc2)no1,-29%[39.2 µM]
Cn1c(Cn2cccn2)nnc1C1CC(Nc2ncnc3sccc23)C1 (centres undefined),2%
CC(C)(C)OC(=O)N[C@H]1CCCCCC=C[C@@H]2C[C@@]2(C(=O)NS(=O)(=O)C2CC2)NC(=O)[C@@H]2C[C@@H](OC(=O)N3Cc4cccc(F)c4C3)CN2C1=O,-11%
Cc1cc(=O)n(CC(=O)NCc2ccccc2Cl)c(N(C)Cc2ccccc2)n1,-7%
Cc1ccn2c(=O)c(C(=O)NC(C)c3ccccc3)c(O)nc2c1 (centres undefined),-12%
CCOC(=O)C1=C(CN2CCN(c3ccccc3)CC2)NC(=O)NC1c1ccc(C)cc1 (centres undefined),-16%
CC(=O)N1CCCc2cc(S(=O)(=O)N3CCC(C(=O)N(Cc4ccccc4)C(C)C)CC3)ccc21,-15%
CC1=C(C(=O)Nc2cccnc2)C(c2ccc(F)cc2)n2nc(-c3cccc(C)c3)nc2N1 (centres undefined),-14%
O=C(CCCc1ccccc1)Nc1ccnn1C1CCN(C(=O)c2ccccc2F)CC1,-5%
c1cncc(CNc2ccnc(-c3ccc4c(c3)OCO4)n2)c1,i
CC(N[C@H]1C[C@@H]1c1ccccc1)c1ccc2c(c1)OCCO2 (some centres undefined),-15%
COc1cccc(OC)c1C(=O)Nc1ccc(-c2nc3ncccc3o2)cc1,-21%
CCOC(=O)c1c(NC(=O)c2ccc(F)cc2)sc2c1CCC(CC)C2 (centres undefined),-19%
CCOc1ccc(CCNC(=O)CSc2nnnn2-c2ccccc2)cc1OCC,-13%
Cc1ccc(Nc2ncc(C(=O)N3CCN(c4cccc(Cl)c4)CC3)c3ccccc23)cc1Cl,-20%
COc1cc(C2Oc3c(OC)cc(CCCO)cc3C2CO)ccc1O (centres undefined),81%[activator]
CN1CCN(C(c2ccccc2)c2ccc(Cl)cc2)CC1 (centres undefined),-4%

# In the list so far, these have a Cl atom:
SMILES,nsP2pro primary
Cc1cc(=O)n(CC(=O)NCc2ccccc2Cl)c(N(C)Cc2ccccc2)n1,-7%
Cc1ccc(Nc2ncc(C(=O)N3CCN(c4cccc(Cl)c4)CC3)c3ccccc23)cc1Cl,-20%
CN1CCN(C(c2ccccc2)c2ccc(Cl)cc2)CC1 (centres undefined),-4%

# Other structures
SMILES,nsP2pro primary
COc1ccccc1NS(=O)(=O)c1cc(NC(=O)c2ccccc2)ccc1N1CCCC1,-15%
CCn1c(C(=O)N2CCC(C(=O)N3CCN(c4cc(C)ccc4C)CC3)CC2)cc2sccc21,-10%
O=c1[nH]nc2n1CCN(CC1CCCCC1)CC2,-1%
CC1CCC(NC(=O)c2ccc(CS(=O)(=O)c3ccc(Cl)cc3)o2)CC1 (centres undefined),-16%
CN1CCN2c3c(cccc31)[C@@H]1CN(CCCC(=O)c3ccc(F)cc3)CC[C@@H]12,-15%
CC1(C)CC[C@]2(C(=O)O[C@@H]3O[C@H](CO)[C@@H](O)[C@H](O)[C@H]3O)CC[C@]3(C)C(=CCC4[C@@]5(C)C[C@H](O)[C@H](O[C@@H]6O[C@H](C(=O)O)[C@@H](O)[C@H](O)[C@H]6O)[C@@](C)(CO)C5CC[C@]43C)C2C1 (some centres undefined),-5%[5.1 µM]
CCC(=O)N[C@H]1CC[C@H](C(=O)N(C)c2ccc(-c3nc4ccccc4o3)cc2)C1,-7%[39.2 µM]
O=c1cc(COc2ccc(Cl)cc2Cl)nc2scc(-c3ccccc3)n12,0%
COc1ccc(Cl)cc1NC(=O)c1cc2nc(-c3ccc4c(c3)OCO4)cc(C(F)(F)F)n2n1,-15%
O=S(=O)(NC1CCCC(NS(=O)(=O)c2c(F)cccc2F)C1)c1ccc2c(c1)OCCO2 (centres undefined),5%
COc1cccc(S(=O)(=O)N2CC3(Cc4ccccc4C(=O)N3)C2)c1,-4%
COc1ccc(OC)c(NC(=O)c2nc(SCc3ccc(F)cc3)ncc2Cl)c1,-15%
COc1ccc2cccc(CCNC(C)=O)c2c1,-4%
NCCc1cccc(CN2CCCC(CO)(CC3CC3)C2)c1 (centres undefined),i
CC(C)=CCCC(C)=CCCC(C)=CCCC=C(C)CCC=C(C)CCC=C(C)C,-7%
COc1ccc(NC(=O)c2cc(=O)c3ccc(C)c(C)c3o2)cc1Cl,-23%
CN(CC1CCCN(CCc2cccc(C(F)(F)F)c2)C1)C(=O)c1ccc2[nH]ccc2c1 (centres undefined),i
C[C@H](C(=O)N1CCSCC1)C1CC[C@@]2(C)Cc3sc(Nc4c(Cl)cccc4Cl)nc3[C@@H](C)[C@@H]2[C@H]1O (some centres undefined),i
Cc1ccc(OCC(=O)NCc2c(C)ncc3c2CCNC3)cc1C,-12%
COc1cc(OC)c(NC(=O)C2CCN(S(=O)(=O)c3c(C)noc3/C=C/c3c(C)cc(C)cc3C)CC2)cc1Cl,-16%
COC(=O)c1ccnc(-c2cc(C(=O)NCCc3ccccc3)ccn2)c1,57%[activator]
Clc1ccc(CN(CCCNc2ncnc(NCCCc3cnc[nH]3)n2)c2ccc(Br)cn2)cc1Cl,i
CCn1c(=O)c(=O)n(CC)c2cc(N3CCCCC3)c(NC(=O)c3cccc(OC)c3)cc21,-15%
Cc1cccc(C(=O)N2CCc3cc(CNC(=O)CSc4ccccc4)ccc32)c1,-14%
CCOC(=O)c1cccc(NC(=O)CCn2c(=O)oc3ccccc32)c1,-19%

# In the list so far, these have an NH in an aromatic ring.
SMILES,nsP2pro primary
COc1ccccc1NC(=O)CSc1nc2nccnc2c(=O)n1CCc1c[nH]c2ccccc12,-6%
O=C(c1ccco1)N1Cc2[nH]cnc2C[C@H]1c1nc(-c2ccncc2)no1,-29%[39.2 µM]
O=c1[nH]nc2n1CCN(CC1CCCCC1)CC2,-1%
CN(CC1CCCN(CCc2cccc(C(F)(F)F)c2)C1)C(=O)c1ccc2[nH]ccc2c1 (centres undefined),i
Clc1ccc(CN(CCCNc2ncnc(NCCCc3cnc[nH]3)n2)c2ccc(Br)cn2)cc1Cl,i

# The list continues.
SMILES,nsP2pro primary
Cc1ccc(N2CC(NC(=O)c3ccc(Br)o3)CC2=O)cc1C (centres undefined),-18%
Cc1ccc(S(=O)(=O)n2cc(C(=O)Nc3ccc(-c4ccccc4)cc3)c3ccccc32)cc1,i
Nc1ncnc2c1c(-c1cccc(OCc3ccccc3)c1)cn2C1CC(CN2CCCC2)C1 (centres undefined),178%[activator]
O=C1CCCC2=C1C(c1[nH]ncc1Cl)N=C(Nc1ccccc1)N2 (centres undefined),0%
Cc1nnc(N2CCC(C(=O)NC3CCC(C)CC3)CC2)c2nn(-c3ccc(Cl)cc3)c(C)c12 (centres undefined),-1%
CC(=O)Nc1ccc(CN2CC3(Cc4ccccc4NC3=O)C2)cc1,0%
COc1ccccc1NC(=O)C1CCN(c2cnccn2)CC1,-15%
CCOC(=O)N1CCN(C(=O)c2ccc3c(c2)N(Cc2cc(C)ccc2C)C(=O)c2ccccc2S3=O)CC1 (centres undefined),-22%
COc1cccc(/C=C/c2nc(C#N)c(NC3CCCCC3)o2)c1,?
Cc1cc(C)c2c(=O)nc(SCc3ccccc3C)n(C3CC3)c2n1,-15%
Cc1cc(C)c2c(=O)cc(C(=O)Nc3sc4c(c3C#N)CCCC4)oc2c1,-21%
Cc1ccc(-c2cc(C(=O)Nc3ccc(S(=O)(=O)NCc4nccs4)cc3)c3ccccc3n2)cc1C,-12%
CCC1(O)CCC12CCN(C(=O)C1CCCC1)CC2 (centres undefined),i
Cc1ccc(-n2nc(C)c([C@@H]3C=C[C@@H](NCc4ccc(F)cc4)C3)c2C)cc1Cl,20%[39.2 µM]
CC1=C(C(=O)Nc2ccon2)C(c2ccccc2Br)N=C(Nc2nc3ccccc3o2)N1 (centres undefined),i
O=Cc1ccc(N2CCN([S+](=O)([O-])C3CC3)CC2=O)cc1,i
Oc1ccc(CNc2ccccc2C(F)(F)F)c2cccnc12,i
COc1cc(-c2oc3cc(O)cc(O)c3c(=O)c2O)ccc1O,19%&30%
CN(C)c1ccc(-c2csc(N3CCC(C(N)=O)CC3)n2)cc1,i
CCCCOc1cccc(NC(=O)CSc2nnc(C)s2)c1,-18%
COc1ccc(C(=O)NCCc2ncc(C)n2C2CC2)cn1,i
COc1ccccc1N1CCN(C(c2ccc(Cl)cc2)c2nnc(-c3cccc(F)c3)o2)CC1 (centres undefined),-13%
Nc1nc2n[nH]nc2c(=O)[nH]1,-8%
O=C(CN1CCN(S(=O)(=O)c2cc(Cl)ccc2Cl)CC1)Nc1cccc(F)c1,?
N#Cc1ccc(Nc2ncc(-c3cccc4ccccc34)o2)cc1,-2%
# Later entries
SMILES,nsP2pro primary
Cc1c(Cl)cccc1N1C(N)=C(C#N)C(c2cc(CN3CCOCC3)cs2)C2=C1CCCC2=O (centres undefined),?
COc1ccc(OC)c(NC(=O)CSC2=Nc3ccccc3C3=NC(CC(=O)NCc4ccc5c(c4)OCO5)C(=O)N23)c1 (centres undefined),-7%
CCOc1ccc(N(CC(=O)Nc2cc(OC)cc(OC)c2)S(=O)(=O)c2c(C)[nH]c(=O)[nH]c2=O)cc1,-12%
Cc1ccc(-c2nc(S(=O)(=O)c3ccc(F)cc3)c(N3CCN(c4ccccc4)CC3)o2)cc1,-26%
CCN(CC)CC(C)CNC(=O)c1cc(-c2ccc(Br)s2)nc2ccccc12 (centres undefined),55%[activator]
C[S+](=O)([O-])N1CCC(c2nnc3n2C(C(=O)NC2CCCCC2)CC3)CC1 (centres undefined),-6%
Cc1nc2c(c(C)c1CCC(=O)N1CCN(c3ccccc3)CC1)c(=O)n(C)c(=O)n2C,-9%
NC(=O)C1CCN(c2ncc(-c3ccc4c(c3)OCCO4)s2)CC1,-7%
O=C(Nc1ccc(Cl)c([N+](=O)[O-])c1)Nc1nnc(C2CCCCC2)s1,-2%
CC(=O)Nc1cccc(-c2cc3c(cn2)CN(Cc2ccccc2)CCN3)c1,3%[39.2 µM]
O=c1cc(-c2ccccc2)c2cc(Cl)c3c(c2o1)CN(Cc1ccccc1)CO3,-19%
C=C[C@H]1C(O[C@@H]2O[C@H](CO)[C@@H](O)[C@H](O)[C@H]2O)OC=C2C(=O)N3CCc4c([nH]c5ccccc45)[C@H]3C[C@H]21 (some centres undefined),-7%[10 µM]
COc1ccccc1CNc1nccn(-c2ccc(F)cc2)c1=O,2%
Nc1nc2c(ncn2[C@H]2C[C@H](O)[C@@H](CO)O2)c(=O)[nH]1,-18%
NC(=O)Nc1cc(-c2cccc(F)c2)sc1C(=O)N[C@H]1CCCNC1,82%&-9%&25%[activator]
Cc1cc(C)cc(NS(=O)(=O)c2ccc3[nH]cc(C(=O)N4CCCCCC4)c(=O)c3c2)c1,-7%
CCC1(CC)CCN(C(=O)CC(c2ccc3c(c2)OCO3)c2c(O)cc(OC)cc2OC)C1 (centres undefined),-8%
CCOc1ccccc1NS(=O)(=O)c1c(C(=O)OC)sc2cccc(F)c12,-13%
N#Cc1nc(/C=C/c2ccc(F)cc2)oc1N1CCCCC1,?
COc1ccc(N2CCN(C(=O)C3CCN(S(=O)(=O)c4cnc[nH]4)CC3)CC2)cc1,-17%
CCOc1cc(=O)n2c(c1C(=O)Nc1cccc(C)c1)CCCC2,-5%
COC1CCCOC12CCN(C(=O)CCn1c(C)nc3ccccc31)CC2 (centres undefined),i
COc1ccc(CN2CCN(S(=O)(=O)c3ccc(NC(C)=O)cc3)CC2)c(OC)c1OC,-13%
c1cncc(CNc2ncnc3ccc(-c4ccoc4)cc23)c1,-14%
CC(=O)OC[C@]12[C@H](OC(C)=O)[C@H](OC(=O)c3ccccc3)[C@@H]3[C@@H](OC(C)=O)[C@]1(OC3(C)C)[C@H](C)C[C@H](OC(C)=O)[C@@H]2OC(=O)c1ccccc1,-4%[10 µM]
Cc1ccccc1C(C(=O)NC1CCCCC1)N(C(=O)Cn1cnc2ccccc21)c1cccc(F)c1 (centres undefined),-3%&72%
COc1ccc(CCN2C(=O)c3oc4cc(C)cc(C)c4c(=O)c3C2c2ccccc2F)cc1OC (centres undefined),-18%
CCOC(=O)N1CCN(C(=O)Cn2sc3nc(C)cc(C)c3c2=O)CC1,3.9µM*
OCc1cnc(SCc2ccc(F)cc2)n1Cc1ccc(F)cc1,-4%
COc1ccc(C2=Nn3c(nnc3-c3ccc(OC)c(OC)c3)SC2)c(OC)c1,3%

# Arranged by heavy-atom count (falling): part of the list above.
SMILES,nsP2pro primary
COc1ccc(CN2CCN(S(=O)(=O)c3ccc(NC(C)=O)cc3)CC2)c(OC)c1OC,-13%
CCN(CC)CC(C)CNC(=O)c1cc(-c2ccc(Br)s2)nc2ccccc12 (centres undefined),55%[activator]
Nc1nc2c(ncn2[C@H]2C[C@H](O)[C@@H](CO)O2)c(=O)[nH]1,-18%
